Sa ugtP lethal: growth inhibition of S. aureus ugtP deletion strain | S. aureus RN4220 ugtP deletion, OD600 growth, 16 h; some inactives read as strong as hits | actives 0.54% (n = 330,000) | growth inhibition, % (no concentration beside the values) | AID 1259309;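 active = z-score under -3 and OD600 up to 0.15 on both plates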;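 note: plate controls were untreated wells for no effect and antibiotic for full effect; wells of about 80 µL received 100 nL stock; the first replicate is given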
BJeLR viability: BJeLR cell viability loss | BJeLR (HRASV12) viability, CellTiter-Glo ATP luminescence, 48 h; reference of the scale not given here | actives 0.17% (n = 300,000) | inhibition, % (test concentration not listed);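 active = replicate mean above 50%; inconclusive = above 50% but judged a plate artefact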;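 note: 50 nL library stock added to about 25 µL; numbers are from one replicate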
Sa RN4220 lethal: kills Staphylococcus aureus RN4220; inhibition, % (no concentration beside the values); actives 0.33% (n = 330,000); S. aureus RN4220 growth, OD600, 16 h;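 active = z-score of -3 or lower and OD600 up to 0.18 on both plates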;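 note: plate controls were untreated cells for no effect and reference antibiotic for full effect; stock transfer was 100 nL into about 80 µL; one replicate is shown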
Bead autofluor: flagged as autofluorescent in microsphere protease counterscreen. actives 3.1% (n = 360,000). compound autofluorescence counterscreen, microsphere flow cytometry; hits give high values. fluorescence intensity (no concentration beside the values);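 active = at least 3 SD above the mean of all compounds, about 16000 in these data; inconclusive = too few beads counted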;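 note: 100 nL of 1 mM stock went into each well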
Mtb hypoxia inh: reduces hypoxia-regulated biosensor signal in M. tuberculosis; M. tuberculosis hypoxia-regulated fluorescent reporter, fluorescence; fluorescence inhibition, % (no concentration beside the values); actives 0.1% (n = 300,000); AID 1159583;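 active = 35 to 45% if threefold the growth effect, above 45% if 1.5-fold the growth effect; inactive = the rest, general growth blockers included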;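 note: wells of about 50 µL received 100 nL stock; 0% = vehicle wells and 100% = reference inhibitor wells; whole bacteria with a GFP reporter of the hypoxia response; strong numbers were not always called active; many hits fall short of the cut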
PrP 5UTR inh: inhibition of PrP 5' UTR reporter expression; inhibition, % (concentration not given with the values); cell-based PrP 5' UTR mRNA reporter, plate reader; actives 0.35% (n = 340,000);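 active = every replicate at 50% or more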;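 note: 0 = median of the neutral control wells; tested in H4 reporter cells; numbers are from one replicate; inactives centre near -14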
Mtb hypoxia inh growth: also measured in Mtb hypoxia inh; calls as there; growth inhibition, %; measured here: M. tuberculosis growth (absorbance);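 0% = vehicle and 100% = reference antibiotic; read after six days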
* marks the source's active call; other numbers are inactive results; ? = inconclusive; nt = no result given; & = joins results of further samples.

SMILES	Sa ugtP lethal	BJeLR viability	Sa RN4220 lethal	Bead autofluor	Mtb hypoxia inh	Mtb hypoxia inh growth	PrP 5UTR inh
CCCC(C#CCCN1C(=O)c2ccccc2C1=O)=C1c2ccccc2C(=O)N1c1ccccc1	-4	nt	2.5	nt	14	11	nt
Nc1nc(NC(=O)CCCC(=O)O)nn1-c1ccccc1	-5	-5	-15	2970	13	13	-36
Cn1cc(C(=O)OCC(=O)NC2CCCCC2)c2ccccc21	-1	nt	0.6	5848	3	10	-5
C/C=C/C(=O)OCC(=O)Nc1ccc(C)c(S(=O)(=O)N(C)C)c1	nt	-1	nt	4143	nt	nt	1
CN(C)c1ccc(/C=C/C=C2/C(=O)NC(=O)N(c3ccccc3)C2=O)cc1	5	15	3.2	4332	nt	nt	-40
O=C1OCCN1C(=O)[C@H]1[C@H](c2ccc([N+](=O)[O-])cc2)C(c2ccccc2)=NN1c1ccccc1	0	nt	-8.3	3858	2	11	-12
CC(=O)c1cccc(NC(=O)c2csc(-n3nc(C)cc3C(F)(F)F)n2)c1	10	4	4.0	22022*	3	8	2
COc1ccc2c(C(=O)c3ccc(C)cc3)n(CCC(N)=O)[n+]([O-])c2c1	-2	0	8.5	3784	8	2	-18
N#Cc1cc(-c2ccccc2)nnc1Oc1ccccc1Cl	1	3	-5.6	2314	nt	nt	-20
COc1cc(C(=O)O)c([N+](=O)[O-])c(OC)c1OC	5	6	5.5	6068	2	6	-26
CCOc1ccc(S(=O)(=O)NCc2ccncc2)cc1	-4	18	4.9	5683	-3	6	-9
COc1cccc(NC(=O)CN(C)S(=O)(=O)/C=C/c2ccccc2)c1	3	nt	2.9	3586	4	0	-17
CCn1cc(C(=O)N2CCC3(CC2)OCCO3)c(=O)c2cc(S(=O)(=O)N3CCCC3)ccc21	-1	-15	4.1	5557	-4	3	11
COc1ccc(NC(=S)NCc2cccs2)c(OC)c1	5	-6	2.5	2183	6	0	-19
CN1CCN(NC(=O)c2ccccc2F)CC1	2	0	1.6	4863	nt	nt	-19
Cc1nnc(SCC(=O)NNC(=O)c2ccc(Cl)cc2)s1	15	3	2.6	3919	13	7	-6
COC(=O)c1ccccc1NC(=O)N1CCN(c2ccccc2F)CC1	9	-7	5.1	2460	-1	-14	-5
CN(C)c1ccc(/C=N/NC(=O)c2ccccc2O)o1	nt	6	nt	1988	nt	nt	-22
CCc1cn(S(=O)(=O)c2ccccc2OC)nc1N	-11	4	5.8	7756	9	3	-10
CCOC(=O)c1ccc(N=c2sc(C(=O)OC)cc(=O)n2CCCN2CCOCC2)cc1	-1&-3	-13&0	-11&-14	6215&5456	6&12	21&14	-21&-8
Cc1ccc(-n2c(C)cc(C(=O)OCC(=O)N3CCOCC3)c2C)cc1	-2	nt	-0.5	3731	3	8	-4
COc1ccc(C(=O)OCC(=O)NCC2CCCO2)cc1 (stereo unspecified)	15	-6	1.5	2599	-5	-2	-23
Cc1ccn2c(C(=O)CSc3ccc(Cl)cc3)c(C)nc2c1	-3	1	5.7	2123	nt	nt	0
O=S1(=O)CCOCC(Cc2ccccc2)N1Cc1ccccc1Br (stereo unspecified)	30	nt	18	nt	20	7	nt
CC(C)(C)C1COC(=O)CCCC=CCC(CC(=O)NCCO)C(=O)N1 (stereo unspecified)	-5	nt	4.7	nt	10	0	nt

Complete entries, looked up by structure:
Listed for CCOC(=O)c1ccc(N=c2sc(C(=O)OC)cc(=O)n2CCCN2CCOCC2)cc1 → Sa ugtP lethal: -1&-3; BJeLR viability: -13&0; Sa RN4220 lethal: -11&-14; Bead autofluor: 6215&5456; Mtb hypoxia inh: 6&12; Mtb hypoxia inh growth: 21&14; PrP 5UTR inh: -21&-8
Listed for Cc1nnc(SCC(=O)NNC(=O)c2ccc(Cl)cc2)s1 → Sa ugtP lethal: 15; BJeLR viability: 3; Sa RN4220 lethal: 2.6; Bead autofluor: 3919; Mtb hypoxia inh: 13; Mtb hypoxia inh growth: 7; PrP 5UTR inh: -6

(further entries)
SMILES	Sa ugtP lethal	BJeLR viability	Sa RN4220 lethal	Bead autofluor	Mtb hypoxia inh	Mtb hypoxia inh growth	PrP 5UTR inh
CCOc1ccc(NC(=O)Cn2c(=O)oc3ccccc32)cc1	-2	-8	-1.1	3093	0	2	-19
CC(=NNC(=O)c1ccc(N(C)C)cc1)c1ccc(C)cc1C	3	nt	-2.0	nt	9	-2	nt
Cc1ccc(Cn2c(SC3CCOC3=O)nc3ccccc3c2=O)cc1 (stereo unspecified)	4	-12	4.1	10667	12	4	-9
Cc1cccc(C)c1NC(=O)C1CCCN1S(=O)(=O)c1ccc(-c2ccc(=O)[nH]n2)s1 (stereo unspecified)	99*	-6	98*	5678	-10	5	16
Cc1ccc(OCC(=O)NN=Cc2cn(C)c3ccccc23)c([N+](=O)[O-])c1	-5	nt	1.2	nt	-2	-4	nt
CCn1c(SCC(=O)Nc2nccs2)nnc1C1CC1	0	-3	0.0	nt	7	-5	9
O=C(C1=C[C@H](c2csc3ccccc23)C[C@H](OCCCCO)O1)N1CCN(Cc2ccccc2)CC1	nt	6	nt	3763	nt	nt	5
Cc1ccc(O)c(C(=O)CC(=O)c2ccc(C(C)(C)C)cc2)c1	100*	-7	99*	3938	-2	11	-4
c1ccc(CSc2nc3ncncc3[nH]2)cc1	-11	-4	-4.1	3987	-6	-3	-17
O=C1Nc2ccc(Br)cc2C1=NN=CC1=C(N2CCOCC2)/C(=C\c2ccccc2)CC1	-11	nt	-2.0	nt	nt	nt	nt
CCCN(CCC)CCCNC(=O)C1c2cc(OC)c(OC)cc2C(=O)N(C)C1c1cccs1 (stereo unspecified)	5	4	-0.2	?	19	-3	3
O=C(N[C@@H](Cc1ccccc1)C(=O)O)c1ccncc1	nt	-5	nt	3692	nt	nt	-24
O=C(CC1SC(=NS(=O)(=O)c2ccc(F)cc2)N(c2ccccc2)C1=O)Nc1ccccc1 (stereo unspecified)	0	nt	2.1	nt	-5	-3	nt
O=C(Nc1ccc(Cl)cc1)c1cccc(N2C(=O)C3C4CCC(C4)C3C2=O)c1 (stereo unspecified)	2	2	3.2	2053	17	3	16
COc1cc(NC(=O)c2ccc(Cl)cc2)c2ncccc2c1	-3	0	2.3	3269	7	3	-12
O=Cc1ccc(OCc2nnc(-c3ccccc3Br)o2)cc1	1	14	2.1	3151	1	-2	-9
CC1CN(S(=O)(=O)c2ccc(F)cc2)CN1C(=O)N1CCOCC1 (stereo unspecified)	13	-7	1.5	3133	-4	-5	-16
O=C1CCC(C(=O)N2CCOCC2)CN1Cc1ccc(Cl)cc1 (stereo unspecified)	2	11	0.6	5823	1	-1	-19
CC(OC(=O)c1cccs1)C(=O)NC1CC1 (stereo unspecified)	5	-3	3.5	5132	0	0	-10
COc1ccc(C=Nn2c(-c3ccc(C)cc3)n[nH]c2=S)cc1OC	-4	nt	4.7	nt	10	12	nt
CC(C)(C)c1nnc(NC(=O)COc2ccc3c(c2)OCO3)s1	3	-11	1.3	4152	4	0	-38
Cc1ccc2c(c1)c(C)cc(=O)n2CCC(=O)O	3	-4	3.7	5852	3	-4	-5
COc1cc(C=CC(=O)c2ccc([N+](=O)[O-])o2)ccc1O	99*	nt	68	nt	nt	nt	nt
CCNC(=O)COC(=O)C1C(C(=O)OCC)=C(C)NC(C)=C1C(=O)OCC	5	0	7.3	4525	5	4	-10
Cc1cc(OC(=O)c2ccccc2Cl)cc(=O)n1C	5	-4	-1.6	4238	nt	nt	-22

In a second layout: results already given.
smiles | Sa ugtP lethal | BJeLR viability | Sa RN4220 lethal | Bead autofluor | Mtb hypoxia inh | Mtb hypoxia inh growth | PrP 5UTR inh
O=C1Nc2ccc(Br)cc2C1=NN=CC1=C(N2CCOCC2)/C(=C\c2ccccc2)CC1 | -11 | nt | -2.0 | nt | nt | nt | nt
c1ccc(CSc2nc3ncncc3[nH]2)cc1 | -11 | -4 | -4.1 | 3987 | -6 | -3 | -17
Cc1cccc(C)c1NC(=O)C1CCCN1S(=O)(=O)c1ccc(-c2ccc(=O)[nH]n2)s1 (stereo unspecified) | 99* | -6 | 98* | 5678 | -10 | 5 | 16
CC(=NNC(=O)c1ccc(N(C)C)cc1)c1ccc(C)cc1C | 3 | nt | -2.0 | nt | 9 | -2 | nt
Cc1ccc(O)c(C(=O)CC(=O)c2ccc(C(C)(C)C)cc2)c1 | 100* | -7 | 99* | 3938 | -2 | 11 | -4
CC(C)(C)c1nnc(NC(=O)COc2ccc3c(c2)OCO3)s1 | 3 | -11 | 1.3 | 4152 | 4 | 0 | -38
COc1cc(C=CC(=O)c2ccc([N+](=O)[O-])o2)ccc1O | 99* | nt | 68 | nt | nt | nt | nt

(continued)
SMILES	Sa ugtP lethal	BJeLR viability	Sa RN4220 lethal	Bead autofluor	Mtb hypoxia inh	Mtb hypoxia inh growth	PrP 5UTR inh
CC(/C=C1\SC(=S)N(NC(=O)c2ccc(C)cc2)C1=O)=C\c1ccccc1	3	-4	-2.0	6149	8	7	-14
COc1ccc(NC(=O)c2c(Cl)nc3ccccn23)cc1	5	-7	2.2	2564	1	8	-27
CCCC(=O)N1CCc2[nH]c3ccccc3c2C1	-6	-2	-1.6	6092	3	14	-18
Cc1ccc(Sc2cc(NCCCO)c([N+](=O)[O-])c3nonc23)cc1	1	5	4.9	4499	9	-2	-13
COc1ccccc1N1C(=O)C2C(c3ccc(F)cc3)NN(C(=O)c3ccc(C)cc3)C2C1=O (stereo unspecified)	nt	0	nt	3256	nt	nt	-16
Cc1ccc(CN2CCN(C(=O)CCc3ccccc3)CC2)cc1	15	-2	1.8	3606	15	6	-21
O=[N+]([O-])c1cccc(C2=NC(c3ccccc3)CO2)c1 (stereo unspecified)	5	3	10.0	3032	17	7	0
COc1ccc(CNc2nc(NCc3ccc(OC)cc3)c3[nH]cnc3n2)cc1	2	0	9.5	3954	4	7	-22
COc1ccccc1CC(=O)N1CCC(CCC(=O)NC2CC2)CC1	-1	-1	1.2	6065	7	4	-12
CC1CC(C)CN(C(=O)COC(=O)Cc2ccc(Br)cc2)C1 (stereo unspecified)	19	-1	7.3	4133	2	3	-15
O=C(NCc1ccccn1)c1cc(S(=O)(=O)N2CCCCCC2)ccc1Cl	5	-12	0.9	6265	9	-17	-9
COc1cc2ccccc2cc1C(=O)Nc1ccncc1	0	-9	3.4	nt	1	-3	-45
CCOCC(=O)Nc1nnc(COc2ccc(Cl)cc2)s1	2	-6	1.5	6938	-2	2	-13
COc1ccc(CCNC(=S)Nc2ccc(S(=O)(=O)Nc3ncccn3)cc2)cc1OC	6	-7	-0.2	6140	9	7	-17
O=C(CSc1nnc(-c2ccncc2)n1Cc1ccccc1)NC1CCCCC1	-1	2	0.5	5178	-6	1	-13
O=C(NCc1ccccc1)C1(C(F)(F)F)CC(CCCO)CCCO1 (stereo unspecified)	6	5	4.4	3886	22	12	-52
CCOc1cc(C(=O)NCCCn2ccnc2)cc(OCC)c1OCC	4	5	4.4	2550	4	5	-39
COc1ccc(-c2cc(CNS(=O)(=O)c3ccccc3)on2)cc1	5	2	-0.6	4515	-1	0	1
COc1ccccc1C(=O)NCCC(=O)Nc1ncccc1C	5	-3	2.7	6417	2	5	-13
CCCCn1c(=O)[nH]c(=O)c2c1nc(-c1ccsc1)n2Cc1ccccc1	-9	5	-6.2	2190	nt	nt	-17
O=C1NC(=O)c2cc(NC(=O)c3cccc4ccccc34)ccc21	9	8	4.3	4311	-5	0	-30
Cn1ccnc1SCC(=O)Nc1nc2ccccc2s1	9	3	1.7	3969	-5	10	-104
CCOC(=O)N1CCN(CC(O)COc2ccc(C)c(C)c2)CC1 (stereo unspecified)	2	0	0.9	3147	1	-2	-4
CCCNC(=O)c1ccc2c(c1)C1C3CCC(C3)C1C(c1ccccc1)N2 (stereo unspecified)	-16	-4	-7.0	4001	5	2	-16
COc1ccccc1CN(C)C(=O)c1ccccc1SCC(=O)N1CCCC1	3	nt	11	6138	9	3	-17
c1ccc2c(-c3cncc4ccccc34)cncc2c1	-1	17	-1.2	4116	13	-2	-10
CCOc1ccc(-c2nc(C#N)c(N3CCCCCC3)o2)cc1	30	1	2.6	6150	11	14	-24
O=C(COC(=O)Cn1nnc(-c2ccccc2)n1)Nc1cc(F)ccc1F	5	nt	1.3	3112	2	2	-20

Rows were taken by chance; about 4% have a hit in one of these screens.
